Bioassay records (PubChem)
HEK293 tox – cytotoxic in the GLP-1 receptor inverse agonist counter-screen. HEK293 cAMP-luciferase reporter cells, luminescence, 24 h. Potency, µM (titrated, usually from 38.3 µM), for inactives: at the top dose activity change, negative = inhibition, actives largely listed as inhibitors. 0.13% of 410,000 active. AID 624418;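 further: loss of luciferase light is scored as toxicity; potency means the concentration at half of the fitted maximal effect; on the % scale 0 is the no-effect control and ±100 the full control effect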
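Quantitative HTS format, 1536 wells, 200 cells/uL seeded. Compounds: 23 nL, 24 h, 37 °C. Detection: luciferase reagent, luminescence at 12 min RT; decreased signal taken as cytotoxic.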
GLP-1R inv ag – acts as inverse agonist at human GLP-1 receptor. 1.6% of 410,000 active. Potency, µM (titrated, usually from 38.3 µM), inactives show at the highest dose activity change, negative = inhibition, most hits filed as inhibitors. HEK293 GLP-1R CRE-luciferase, luminescence, 24 h; GLP-1R form is constitutively active; further: potency means the concentration at half of the fitted maximal effect; on the % scale 0 is the no-effect control and ±100 the full control effect; nearly all actives have a fitted effect of over 55% in size
Target sequence (P43220 whole entry, looked up): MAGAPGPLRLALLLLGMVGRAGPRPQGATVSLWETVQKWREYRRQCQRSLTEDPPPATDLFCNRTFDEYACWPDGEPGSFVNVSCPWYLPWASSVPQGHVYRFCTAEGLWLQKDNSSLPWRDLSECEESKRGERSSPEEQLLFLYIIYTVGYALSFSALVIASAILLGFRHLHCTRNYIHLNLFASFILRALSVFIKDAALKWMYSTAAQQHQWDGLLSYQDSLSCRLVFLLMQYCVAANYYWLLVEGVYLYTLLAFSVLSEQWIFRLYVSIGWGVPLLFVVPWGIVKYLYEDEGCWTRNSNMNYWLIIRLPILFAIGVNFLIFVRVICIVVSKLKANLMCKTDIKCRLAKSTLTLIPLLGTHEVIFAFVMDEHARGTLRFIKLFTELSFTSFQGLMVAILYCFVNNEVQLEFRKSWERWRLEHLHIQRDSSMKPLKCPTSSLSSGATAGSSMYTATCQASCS
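HEK293 cells stably co-expressing a cAMP-responsive luciferase reporter and constitutively active GLP-1R were seeded, incubated 12 h, then exposed to compounds for 24 h at 37 C. Luminescence was read 12 min after detection reagent; inverse agonists lower signal.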
EPAC1 ag – activates human EPAC1 exchange factor | O95398 | EPAC1 agonist qHTS, biochemical assay; response scale: 100% = response to 6.5 mM cAMP | Potency, µM (highest dose often 154 µM), for inactives: at the top dose activation, hits mostly activators | 0.073% of 360,000 active | AID 720707; further: potency means the concentration at half of the fitted maximal effect; nearly all actives have a fitted effect of over 60% in size
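Nucleotide exchange by EPAC1 (100 nM) on Rap1B–BODIPY-GDP (250 nM) in the presence of 50 uM GDP is tracked fluorescently at 480/540 nm over 30 min. Signals are normalized to a 6.5 mM cAMP control.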
EPAC1 antag – antagonists of human EPAC1; Potency, µM (titrated, usually from 115 µM), without a hit: at the top dose activity change, negative = inhibition, hits mostly inhibitors; O95398; 0.14% of 360,000 active; EPAC1 GEF assay, Rap1b-BODIPY-GDP exchange fluorescence;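 further: potency means the concentration at half of the fitted maximal effect; plate controls were vehicle for no effect and positive control for full effect; nearly all actives have a fitted effect of over 50% in size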
GLP1R ag – agonists of human GLP-1 receptor | HEK293 GLP-1R CRE-luciferase, luminescence, 4-6 h; cells express a hypersensitive GLP-1R form | P43220 | Potency, µM (titrated, usually from 45.6 µM), for the others: top-dose activation, most hits filed as activators | 0.007% of 380,000 active; further: potency means the concentration at half of the fitted maximal effect; % of control where 0% means no effect
PLK1 PBD inh – inhibitors of human PLK1 polo-box domain binding. P53350. Plk1 PBD binding of FITC phosphopeptide, fluorescence polarization. Potency, µM, for inactives: max response, negative = inhibition, usual class: inhibitors. 2.8% of 360,000 active. AID 720504; further: potency means the concentration at half of the fitted maximal effect; series mostly up to about 57 µM; on the % scale 0 is the no-effect control and ±100 the full control effect; nearly all actives have a fitted effect of over 65% in size
PI5P4Ka inh – PI5P4K alpha (human) kinase inhibition; AID 652105; 1.2% of 330,000 active; max response, %; PI5P4Kalpha enzyme, ADP-Glo luminescence, 60 min; stronger effect = lower value; P48426; active means max response of -50% or lower; inconclusive means between -30% and -50%; inactive means -30% or higher; further: value at the top dose of about 77 µM; on the % scale 0 is the no-effect control and ±100 the full control effect
Target sequence (P48426 whole entry, looked up): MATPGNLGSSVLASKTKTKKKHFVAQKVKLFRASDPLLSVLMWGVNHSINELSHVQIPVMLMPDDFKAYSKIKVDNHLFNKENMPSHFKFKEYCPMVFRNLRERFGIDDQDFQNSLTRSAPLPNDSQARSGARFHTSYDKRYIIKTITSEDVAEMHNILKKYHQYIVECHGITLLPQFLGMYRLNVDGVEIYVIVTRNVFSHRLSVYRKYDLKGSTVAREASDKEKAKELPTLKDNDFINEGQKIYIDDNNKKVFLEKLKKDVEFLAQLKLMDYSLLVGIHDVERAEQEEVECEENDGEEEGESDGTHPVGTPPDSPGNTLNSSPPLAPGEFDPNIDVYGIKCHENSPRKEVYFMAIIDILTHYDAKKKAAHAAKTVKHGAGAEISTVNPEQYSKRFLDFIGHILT
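Compounds were pin-transferred onto PI5P4Kalpha and substrate in HEPES pH 7.4 buffer with EGTA, CHAPS and 5% DMSO. ATP (5 microM final) started the reaction, which ran 60 minutes at room temperature before ADP-Glo detection.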
IL-2 act – activates IL-2 in a cell-based reporter assay | IL-2 activation reporter assay, cell-based qHTS; stimulated with anti-CD3/CD4/CD28 beads; in transgenic mouse T cells | activation, % (series mostly up to about 46 µM) | 0.065% of 360,000 active; in the data active means activation above about 50%; inconclusive means mostly about 30% to 49%; further: 0% is about no effect
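Readout is EGFP and DsRed signal by fluorescent plate cytometry after 18 h at 37 degrees C. Transgenic mouse T cells (750/well) received compound for 60 min before bead stimulation (anti-CD3, anti-CD4, anti-CD28); memory T cells served as non-tolerant control.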
The depositor's hits bear a star; u = inconclusive; x = no result given; [ ] = another dose, or the depositor's remark. Unless noted, the call rests on the fitted dose curve; in most records, active means well fitted curve in the direction sought with a large enough effect; inconclusive means small, poorly fitted or top-dose-only effect, or another doubt; inactive means no such curve, though single readings can be large; an effect the other way counts as inactive or inconclusive. Not all compounds are listed; the hit share may differ from the screen's.

Second line of a record: HEK293 tox | GLP-1R inv ag | EPAC1 ag | EPAC1 antag | GLP1R ag | PLK1 PBD inh | PI5P4Ka inh | IL-2 act
O=C(NCc1ccco1)C1(S(=O)(=O)c2ccc(Cl)cc2)CC1
 : 7% | 0% | 11% | 10% | -5% | -11% | x | -3.8
COc1cc(Br)c(CC(=O)NNC(=O)c2ccc(F)cc2)cc1OC
 : -2% | -4% | -2% | -7% | -8% | 10% | 7 | -0.9
COc1cccc(-c2cc(C(=O)Nc3cccc(O)c3)no2)c1
 : -8% | -10% | -4% | 5% | -6% | -2% | x | -2.3
COCCn1c(=S)[nH]c2ncccc2c1=O
 : -8% | 13% | 0% | 7% | -9% | 2% | -5 | -1.4
CCc1cc(-c2[nH]ncc2-c2ccc3c(c2)OCO3)c(O)cc1O
 : -7% | u | 25% | -14% | -2% | -9% | x | -1.9
CSc1nc(Nc2cccc(C)c2)c(C#N)c(-c2ccccc2)n1
 : 1% | 5% | x | x | x | x | x | x
CC(=O)Nc1cc(C)c2nc(NC(C)=O)sc2c1
 : 0% | 149%[activator] | 0% | 0% | 7% | 4% | -2 | 1.2
C[C@H](NC(=O)c1nc[nH]c1C(=O)NC1CCN(C(=O)OC(C)(C)C)CC1)C(=O)OCc1ccccc1
 : -13% | -1% | 0% | u | 5% | -9% | 0 | -2.9
CN1CC(=O)NC1=NC(=O)c1cc(F)c(F)cc1Cl
 : -31% | -95% | 7% | 14% | -10% | 1% | 2 | -0.7
O=S(=O)(c1ccc(F)cc1)N1CCN(Cc2cc3c(cc2Br)OCCO3)CC1
 : 0% | u | -11% | 5% | -6% | 4% | 11 | 0.5
Cc1ccc(-n2c(=O)c3c4c(sc3n(Cc3ccccc3C)c2=O)CCC4)cc1C
 : 0% | -13% | x | x | x | x | x | x
CCOC(=O)C1CCN(C(=O)NC23CC4CC(CC(C4)C2)C3)CC1
 : -11% | 0% | -1% | 6% | -2% | -4% | x | -1.7
N#Cc1c2n(c3c(=S)nc[nH]c13)CCCCC2
 : 1% | u | 14% | -10% | 0% | -10% | -6 | 1.2
Cc1cccc(N(CC(=O)NC2CC3CCC2C3)S(=O)(=O)c2ccccc2)c1 (centres undefined)
 : -2% | u | 4% | -9% | 10% | 5% | 11 | 3.4
CC(C)N(C(=O)COC(=O)CNS(=O)(=O)c1ccccc1F)c1ccccc1
 : -22% | -9% | 1% | 1% | 13% | -9% | -2 | -1.0

4 entries from above, sorted by the value under GLP1R ag, high to low:
mol | EPAC1 antag | GLP1R ag | PLK1 PBD inh | PI5P4Ka inh
Cc1cccc(N(CC(=O)NC2CC3CCC2C3)S(=O)(=O)c2ccccc2)c1 (centres undefined) | -9% | 10% | 5% | 11
CCOC(=O)C1CCN(C(=O)NC23CC4CC(CC(C4)C2)C3)CC1 | 6% | -2% | -4% | x
O=C(NCc1ccco1)C1(S(=O)(=O)c2ccc(Cl)cc2)CC1 | 10% | -5% | -11% | x
COc1cc(Br)c(CC(=O)NNC(=O)c2ccc(F)cc2)cc1OC | -7% | -8% | 10% | 7

More compounds:
Second line of a record: HEK293 tox | GLP-1R inv ag | EPAC1 ag | EPAC1 antag | GLP1R ag | PLK1 PBD inh | PI5P4Ka inh | IL-2 act
Cc1cc(=O)[nH]c2nnc(SCc3ccc(C(F)(F)F)cc3)n12
 : -1% | 9% | x | x | x | x | x | x
Cc1[nH]n2c(=O)c3c(nc2c1-c1ccccc1)CCCC3
 : -14% | 12% | -5% | 3% | -7% | -2% | 1 | -2.1
Oc1ccc(N2CCN(Cc3cc4c(cc3Br)OCCO4)CC2)cc1
 : -16% | u | 5% | -15% | 14% | -15% | -13 | -0.4
Cc1ccc(NC(=O)c2sc(-n3nc(C)c(CCC(C)C)c3C)nc2C)cc1C
 : 3% | 9% | x | x | x | x | x | x
O=c1[nH]c2ccc(Cl)cc2c(-c2ccccc2)c1N1CCN(CCO)CC1
 : -28% | u | 3% | 1% | -14% | -11% | x | -1.4
C=CCn1c(SCC(=O)Nc2ccc(F)cc2)nnc1-c1cnccn1
 : 12% | 13% | 1% | -11% | 7% | u | -10 | -4.0
N#Cc1ccsc1NC(=O)COC(=O)c1ccc(Br)o1
 : 13% | 15% | -2% | -10% | -6% | -23% | u | 0.6
CCOCCCNC(=S)N1CCN(C(=O)C(=O)Nc2ccc(C(=O)OC)cc2)CC1
 : -12% | 0% | -6% | -3% | -1% | -9% | -6 | -0.5
COc1ccc(CN2CCNC(=O)C2CC(=O)NCCC2=CCCCC2)cc1OC (centres undefined)
 : 0% | 25% | -7% | -25% | -2% | -4% | 0 | 0.5
O=C(O)c1ccccc1NCN1C(=O)C2CC=C(Cl)CC2C1=O (centres undefined)
 : 7% | 1% | -8% | 25% | -6% | -8% | 0 | -2.0
Cn1nnnc1SCCNCc1ccc(F)cc1
 : -1% | 2% | x | x | x | x | x | x
NNC(=O)c1ccc(COCC(F)(F)C(F)F)cc1
 : -9% | -20% | -1% | -3% | 6% | 0% | -6 | 0.7
Cc1nn(C)c(C(=O)Nc2ccn(Cc3ccccc3F)n2)c1[N+](=O)[O-]
 : -13% | 2% | 7% | -2% | 0% | -13% | x | -0.8
CC(C)NC(=O)c1ccc(COCC(F)(F)F)cc1
 : -13% | 8% | 0% | 22% | 9% | -2% | 7 | 21
O=C(NC(=S)Nc1ccc(S(=O)(=O)NC2CCCCC2)cc1)c1cccs1
 : 0% | u | 11% | -6% | 7% | -12% | -7 | -3.0

Of the compounds above, 2 have a furan ring, fused or not.
Second line of a record: HEK293 tox | GLP-1R inv ag | EPAC1 ag | EPAC1 antag | GLP1R ag | PLK1 PBD inh | PI5P4Ka inh | IL-2 act
O=C(NCc1ccco1)C1(S(=O)(=O)c2ccc(Cl)cc2)CC1
 : 7% | 0% | 11% | 10% | -5% | -11% | x | -3.8
N#Cc1ccsc1NC(=O)COC(=O)c1ccc(Br)o1
 : 13% | 15% | -2% | -10% | -6% | -23% | u | 0.6

The listing continues.
Second line of a record: HEK293 tox | GLP-1R inv ag | EPAC1 ag | EPAC1 antag | GLP1R ag | PLK1 PBD inh | PI5P4Ka inh | IL-2 act
Cc1cc([N+](=O)[O-])cc2c1NC(=O)C2(O)N1CCCC(C)C1 (centres undefined)
 : u | -4% | -10% | 7% | 12% | -12% | -6 | 1.8
CCN(CC)CCCn1c(=S)[nH]c2ncccc2c1=O
 : -3% | 3% | 4% | 4% | -19% | u | -18 | -2.2
CCCCn1c(SCC(=O)N2CC(=O)Nc3ccccc32)nnc1-c1ccoc1C
 : -1% | -10% | -9% | -7% | 7% | -4% | 3 | -2.6
CC1CCCN(C2(O)C(=O)Nc3ccc(Cl)cc32)C1 (centres undefined)
 : -17% | -17% | 3% | 4% | 12% | -11% | -3 | 1.5
CC(=O)c1cccc(NC(=O)c2sc(-n3nc(C)c(Cc4ccccc4)c3C)nc2C)c1
 : 3% | 6% | x | x | x | x | x | x
Cc1ccc(CSc2nnc(CNc3ccc(F)cc3)o2)cc1
 : 0% | u | 14% | -10% | 23% | u | 2 | -0.1
COc1ccc(CC(=O)c2cc(OC)c(OC)cc2CC(=O)O)cc1OC
 : -4% | -2% | 0% | 15% | -6% | -4% | -7 | -0.4
C=CCn1c(CCNC(=O)c2ccccc2F)nnc1SCc1nc2ccccc2c(=O)[nH]1
 : -11% | 0% | -22% | 15% | -3% | -5% | x | -1.8
CN(C)CCCNc1cc(Cl)c(S(=O)(=O)N2CCCCC2)cc1C(=O)O
 : 2% | 17% | 8% | -14% | 0% | -8% | x | 0.3
Cc1nn(-c2ccccc2)c2[nH]c(=O)c(CNCCN3CCOCC3)cc12
 : -11% | 0% | 3% | 3% | -11% | -8% | -3 | 1.0
Cc1cc(Cl)ccc1OCCCC(=O)Nc1cccc(-n2cnnn2)c1
 : -7% | 10µM* | 0% | -16% | 13% | -3% | 1 | 0.4
Nc1nc(SCc2nc(-c3ccccc3)no2)[nH]c(=O)c1-c1ccccc1
 : 16% | 0% | 13% | -14% | 3% | -15% | x | 3.1
c1ccc2c(c1)CCCN2Cc1nnnn1C1CCCC1
 : 2% | u | -6% | -9% | 7% | -7% | 3 | -2.1
CCC(=O)Nc1ccc2nc(C)n(CC(=O)Nc3ccccc3)c(=O)c2c1
 : -12% | 10% | -6% | 10% | 2% | 1% | x | -0.2
COc1ccc(CSC2=NCCN2)cc1Cl
 : u | u | -14% | -17% | 12% | -10% | x | 0.1
O=C(CNc1n[nH]c(=O)[nH]c1=O)N/N=C/C1CC=CCC1 (centres undefined)
 : 3% | 35%[activator] | 14% | -6% | 3% | -4% | -3 | 0.4
O=c1[nH]c2ccc(Cl)cc2c(-c2ccccc2)c1N1CCOCC1
 : 21% | -5% | -8% | -11% | 3% | -20% | 0 | -0.6
O=S(=O)(c1ccccc1F)N1CCN(Cc2cc3c(cc2Br)OCCO3)CC1
 : -20% | u | 16% | 6% | -3% | -3% | 3 | 1.8
Cc1[nH]c(=O)[nH]c(=O)c1Cc1cccc2ccccc12
 : -4% | 19% | -1% | -5% | 17% | 0% | 2 | -0.1
COc1cc(OC)c(OC)cc1CNCCCSc1nnnn1C
 : 4% | 3% | x | x | x | x | x | x
C[C@H](NC(=O)c1nc[nH]c1C(=O)NCC(=O)OC(C)(C)C)C(=O)OCc1ccccc1
 : 10% | 17% | 3% | -9% | 0% | -12% | 8 | 0.6
COc1cc2ccccc2ccc1=NO
 : -20% | 2.5µM* | -4% | -11% | -5% | 0% | 3 | 0.4
COc1cccc(C2C(C(=O)Nc3ccccc3)=C(C)Nc3nc(-c4ccccc4)nn32)c1 (centres undefined)
 : -8% | -25% | x | x | x | x | x | x
COc1ccccc1N1CCN(CC(O)COc2ccc3c(C)cc(=O)oc3c2)CC1 (centres undefined)
 : 6% | 2% | -2% | 6% | 2% | -3% | x | 1.6
CC(=O)N1CCCc2cc(S(=O)(=O)N3CCC(N(C)C(C)C)CC3)ccc21
 : 1% | 4% | x | x | x | x | x | x
COc1ccc(C2C3=C(Nc4ncnn42)c2ccccc2CCC3)cc1 (centres undefined)
 : 4% | -1% | 0% | 2% | 15% | -1% | x | 1.2
COc1cccc(NC(=O)CN(c2ccc(C)cc2)S(=O)(=O)c2c(C)nn(C)c2C)c1
 : -11% | 0% | 29% | -15% | 4% | -7% | x | 0.6
CN(Cc1ccsc1)C(=O)Cn1cc(Br)ccc1=O
 : 32% | 32%[activator] | -3% | -11% | 3% | -17% | 3 | 0.0
COCCNC(=O)CSc1nc(-c2ccccc2)[nH]c1-c1ccc(C)cc1
 : 12% | -3% | x | x | x | x | x | x
CC(C)Cn1c2ccccc2c2cc(C(=O)O)ccc21
 : -15% | -7% | 1% | 1% | -7% | -5% | x | -4.3
Cc1ccc(CN2CCc3nc(N4CCN(C)CC4)ncc3C2)s1
 : -27% | u | x | x | x | x | x | x
